Compound activity: PubChem, National Center for Advancing Translational Sciences (NCATS)
Marburg entry inh – blocks Marburg virus binding to or entry into cells. AID 540276. actives 1.8% (n = 300,000). Potency, µM (titrated, usually from 37.8 µM), for inactives: at the highest dose activity change, negative = inhibition, most hits filed as inhibitors. Marburg virus pseudotyped entry inhibition, cell reporter; control for the full effect not named in the record; about a third of the inactives were read at about 46 µM; active = well fitted inhibition curve with a large enough effect; inconclusive = small, poorly fitted or top-dose-only effect, or effect the other way; inactive = flat fitted curve, though single readings scatter; tested in HEK293 cells; about a fifth of its hits are not listed in these tables; note: % is set by controls: 0 for no effect and ±100 for the full control effect; luciferase read-out
Cruzain Triton – blocks cruzain activity in presence of Triton detergent. Potency, µM, for inactives: max response, negative = inhibition, most hits filed as inhibitors. actives 0.43% (n = 200,000). purified cruzain, Z-FR-AMC fluorescence, 0.01% Triton;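 note: plate controls were neutral wells for no effect and buffer without enzyme for full effect; nearly all actives have a fitted effect of over 40% in size; top concentration of the series not given in the record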
Target sequence (P25779 123-467 limits assumed): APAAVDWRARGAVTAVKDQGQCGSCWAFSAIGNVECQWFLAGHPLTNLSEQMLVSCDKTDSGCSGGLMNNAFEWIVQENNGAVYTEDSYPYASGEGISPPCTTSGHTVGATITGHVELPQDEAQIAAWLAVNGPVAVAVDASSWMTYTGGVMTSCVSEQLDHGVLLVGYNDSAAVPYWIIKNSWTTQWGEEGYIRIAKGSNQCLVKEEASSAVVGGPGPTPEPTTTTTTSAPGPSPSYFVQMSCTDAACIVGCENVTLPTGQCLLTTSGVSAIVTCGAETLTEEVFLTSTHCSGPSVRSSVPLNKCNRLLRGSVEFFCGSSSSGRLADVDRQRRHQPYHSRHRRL
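Sodium acetate buffer (100 mM, pH 5.5) containing 5 mM DTT and 0.01% Triton X-100 hosted 1.5 nM cruzain and test compound for 15 min at room temperature. Cleavage of 2 uM Z-FR-AMC was then tracked by fluorescence.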
SARS PLpro yeast – SARS-CoV PLP inhibition in yeast; S. cerevisiae expressing SARS-CoV PLpro, growth rescue; control for the full effect not named in the record; actives 0.19% (n = 330,000); Potency, µM (highest dose often 32.9 µM), without a hit: top-dose activity, positive = growth rescue; active means well fitted rising curve with a large enough effect; inconclusive means small, poorly fitted or top-dose-only effect; inactive means no such curve, though single readings can be large or run the other way; note: 0% is about no effect; nearly all actives have a fitted effect of over 55% in size; growth read by luminescence after 48 h
LASV entry inh – blocks Lassa virus binding to or entry into cells; actives 1.2% (n = 300,000); Potency, µM (highest dose often 37.9 µM), for inactives: at the highest dose activity change, negative = inhibition, usual class: inhibitors; Lassa virus pseudotype entry inhibition, cell reporter; control for the full effect not named in the record; AID 540256; active means well fitted inhibition curve with a large enough effect; inconclusive means small, poorly fitted or top-dose-only effect, or effect the other way; inactive means flat fitted curve, though single readings scatter; tested in HEK293 cells; note: % is set by controls: 0 for no effect and ±100 for the full control effect; nearly all actives have a fitted effect of over 50% in size; luciferase read-out
2A StopGo – lowers the luciferase signal of an FMDV 2A StopGo reporter; Potency, µM (titrated, usually from 57.9 µM), for inactives: at the highest dose signal change, negative = less light; actives 1.2% (n = 410,000); human cells with a luciferase reporter of 2A StopGo recoding; control for the full effect not named in the record; active = well fitted falling curve with a large enough effect; inconclusive = small, poorly fitted or top-dose-only effect; inactive = no such curve, though single readings can be large or run the other way; tested in HEK293T cells; note: % is set by controls: 0 for no effect and ±100 for the full control effect; nearly all actives have a fitted effect of over 45% in size; luciferase light after 4 h
RE007 growth inh – less growth of the S. pombe RE007 Vpr strain | S. pombe RE007 Vpr strain, BacTiter-Glo ATP luminescence, 24 h; control for the full effect not named in the record | Potency, µM (doses to about 92.2 µM), for the others: at the highest dose activity change, negative = less growth | actives 0.21% (n = 360,000) | AID 651644; active = well fitted falling curve with a large enough effect; inconclusive = small, poorly fitted or top-dose-only effect; inactive = no such curve, though single readings can be large or run the other way;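 note: % is set by controls: 0 for no effect and ±100 for the full control effect; nearly all actives have a fitted effect of over 50% in size; the assay follows cell death caused by Vpr and the record does not say whether a fall means rescue or toxicity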
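Fission yeast RE007 carrying one integrated HIV-1 vpr copy, seeded at OD 0.01 in PMG+AL medium with 23 nL pinned compound. Grown 24 h at 30 degrees; viability read by BacTiter-Glo luminescence after 5 min.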
NS1 function inh – inhibitors of influenza NS1 protein function | S. cerevisiae slowed by influenza A NS1, growth recovery by OD600 | Potency, µM (top dose mostly 46.1 µM), for inactives: at the highest dose activity, positive = more growth | actives 0.4% (n = 270,000) | AID 2326; active means well fitted rising curve with a large enough effect; inconclusive means small, poorly fitted or top-dose-only effect; inactive means no such curve, though single readings can be large or run the other way; note: nearly all actives have a fitted effect of over 50% in size
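Recovery from NS1-induced slow growth read by OD600 in budding yeast switched to galactose assay medium (pH 6.0, -URA) at 1:100 dilution. Compound 23 nl per well; the matching strain lacking NS1 serves as control.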
Cruzain noTriton – blocks cruzain activity in detergent-free assay | P25779 | actives 2.3% (n = 200,000) | purified cruzain, Z-FR-AMC fluorescence, no detergent | Potency, µM, for inactives: max response, negative = inhibition, usual class: inhibitors;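 note: plate controls were enzyme without inhibitor for no effect and buffer without enzyme for full effect; nearly all actives have a fitted effect of over 40% in size; top concentration of the series not given in the record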
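Purified cruzain at 1.5 nM, pre-incubated 15 min with compound at room temperature in 100 mM sodium acetate pH 5.5, 5 mM DTT, 0.00005% Triton X-100. Reaction started with 2 uM Z-FR-AMC; AMC fluorescence increase over 60 s gives rate.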
Active calls of the source: *; ? = inconclusive; / = not tested or not shown; & = joins results of further samples; [ ] = remark or other dose. Unless noted, calls come from the whole dose curve; as a rule, active = well fitted curve in the direction sought with a large enough effect; inconclusive = small, poorly fitted or top-dose-only effect, or another doubt; inactive = no such curve, though single readings can be large; an effect the other way counts as inactive or inconclusive. Potency is the fitted concentration of half-maximal effect.

No.	SMILES	Marburg entry inh	Cruzain Triton	SARS PLpro yeast	LASV entry inh	2A StopGo	RE007 growth inh	NS1 function inh	Cruzain noTriton
1	O=c1c(Cl)cc(Cl)nn1-c1ccccc1	16µM*	-2.9%	-28%	?	35µM*	?	-14%	3%
2	O=C1NN(c2cccc(Br)c2)C(=O)/C1=C\c1ccc(N2CCOCC2)cc1	/	/	1%	/	-18%	-9%	1%	/
3	O=S(=O)(CC(CN1CCCCC1)N1CCCCC1)c1ccccc1 (stereo unspecified)	/	/	15%	/	35µM*	5%	6%	/
4	COc1ccc(CCN2C(=O)c3[nH]nc(-c4ccccc4O)c3C2c2ccc(OC)c(OC)c2)cc1 (stereo unspecified)	?	-8.2%	/	?	-9%	/	/	2%
5	Cc1ccc2c(c1)C1CN(C)CCC1N2C(=O)Nc1cccc(C(F)(F)F)c1 (stereo unspecified)	?	1.3%	-5%	-24%	16%	-7%	0%	6%
6	COc1ccc(OC)c2[nH]c(=O)c(CCNC(=O)C(=O)c3c[nH]c4ccccc34)cc12	/	/	2%	/	-21%	-21%	-3%	/
7	Nc1nnc(SCC(=O)N2CCCCC2)s1	/	/	4%	/	-22%	-12%	17%	/
8	CCOC(=O)N1c2ccccc2C=CC1OCC (stereo unspecified)	10%	2.1%	?	11%	/	/	-8%	-1%
9	COc1cccc(CNC(=O)Cn2ccc3cc(S(=O)(=O)N4CCCC4)ccc32)c1	-18%&-18%[46.1 µM]	-1.2%	1%	2%&-14%[46.1 µM]	0%&-21%	-14%	2%	6%
10	O=C(Nc1ccc(Cl)cc1)c1cc2c(cc1O)[nH]c1ccccc12	7.9µM*	/	-5%	?	?	-4%	-107%	/
11	COc1ccc(NC(=O)c2cc(S(=O)(=O)N3CCCCC3)cn2C)cc1Cl	/	-1.9%	/	-14%[46.1 µM]	-6%	/	/	4%
12	CCn1nnnc1SCC(=O)Nc1nc2ccccc2s1	12%[46.1 µM]	/	0%	7%	9%	-12%	-2%	/
13	O=C(c1cccnc1Cl)N1CCOCC1	-6%[46.1 µM]	/	0%	0%	6%	8%	/	/
14	COc1ccc(C(CC(=O)Nc2cc(C)ccn2)N2Cc3ccccc3C2=O)cc1 (stereo unspecified)	/	/	-1%	/	24%	-3%	-9%	/
15	COc1ccc(/C=N/NC(=O)c2ccc3c(c2)OCCO3)c(OC)c1	0%	/	-2%	8%	23%	-8%	-22%	/
16	O=C(N/N=C/c1sc(=O)n(-c2ccccc2)c1Cl)c1ccncc1	?	-5.3%	4%	3%	-1%	/	0%	15%
17	CCCN(Cc1cc2ccc(C)cc2[nH]c1=O)C(=O)c1cccnc1	-1%	-3.1%	0%	?	-6%	-8%	-1%	-25%
18	COc1ccc(S(=O)(=O)N2CCN(C)CC2)cc1Br	34%	5.5%	4%	2%	11%	3%	-2%	13%
19	COc1ccc(-c2nc(C#N)c(N3CCCCCC3)o2)cc1	?	-19%	-15%	-4%	/	-11%	-59%	17%
20	COc1ccc(/C=C/c2nc(C#N)c(NCCc3ccccc3)o2)cc1OC	6%[46.1 µM]	-25%	/	-8%[46.1 µM]	3%	/	/	?
21	CN(CC(=O)Nc1ccccc1C(F)(F)F)C(=O)c1ccc(N2C(=O)CCC2=O)cc1	0%[46.1 µM]	/	0%	-2%	-12%	-4%	/	/
22	c1ccc(Oc2cnc3ccccc3n2)cc1	-1%	-1.2%	2%	0%	24%	-18%	0%	0%
23	CN(C(=O)COC(=O)CSc1ccc(C(N)=O)cc1[N+](=O)[O-])C1CCCCC1	9%	/	5%	21%	-13%	8%	/	/
24	Cc1ccc(N2C(=O)CC3(CCCC3)CC2=O)cc1	18%[46.1 µM]	/	0%	-1%	23%	4%	3%	/
25	C[n+]1cc(C(=O)N2CCCCC2)ccc1/C=C/c1c[nH]c2ccccc12	2%[46.1 µM]	/	0%	15%[46.1 µM]	19%	-12%	9%	/

More results
No.	SMILES	Marburg entry inh	Cruzain Triton	SARS PLpro yeast	LASV entry inh	2A StopGo	RE007 growth inh	NS1 function inh	Cruzain noTriton
26	CCCn1c(NC(=O)C2CCN(C(=O)c3ccc(F)cc3)CC2)nc2ccccc21	-22%	/	4%	-19%	?	-26%	-16%	/
27	COc1ccccc1NC(=O)NC1(C)CCS(=O)(=O)C1 (stereo unspecified)	-1%[46.1 µM]	/	-3%	8%	-2%	8%	-7%	/
28	Cc1cc(C)nc(N2CCC(C(=O)N3CCN(c4cc(Cl)ccc4C)CC3)CC2)n1	?	-5.4%	-12%	-11%	28µM*	10%	-32%	?
29	Cc1c(NC(=O)C(C)(C)Oc2ccc(Cl)cc2)cccc1-c1nc2ccccc2o1	?	-5.4%	/	?	-21%	/	/	-9%
30	CCOC(=O)C1=NN(C(=O)COc2ccccc2)C(O)(c2ccc(Br)cc2)C1 (stereo unspecified)	/	/	0%	/	0%	11%	-1%	/
31	Cc1cc(C)nc(NS(=O)(=O)c2ccc(NS(=O)(=O)c3ccsc3)cc2)n1	/	/	1%	/	0%	21%	4%	/
32	COc1cc(C(=O)NCc2cccc3ccccc23)ccc1OCc1ccccc1	-40%	-2.3%	1%	?	13%	0%	26%	?
33	Cc1cccc(OCc2nnc(N)s2)c1	10%	2.7%	-1%	5%	26%	-2%	-2%	-1%
34	COc1cc(C(=O)N2CCN(C/C=C/c3ccccc3)CC2)cc(OC)c1C	-20%	5.4%	3%	-14%	/	-3%	-33%	6%
35	O=C(CSc1n[nH]c(=O)[nH]c1=O)NC1CC1	9%	/	-3%	11%	-7%	14%	/	/
36	O=C(CN1C(=O)NC2(CCCCC2)C1=O)NCc1ccc2c(c1)OCO2	/	/	0%	/	-22%	-3%	0%	/
37	CCOc1ccc(N2C(=O)CC(n3ccc(C)n3)C2=O)cc1 (stereo unspecified)	10%	-1.3%	-15%	14%	-11%	15%	-2%	6%
38	COc1ccc(S(=O)(=O)Nc2ncccc2C)c2ccccc12	7%[46.1 µM]	/	12%	-15%[46.1 µM]	67%[activator]	5%	7%	/
39	COCCn1c(C)cc(C(=O)COC(=O)c2[nH]c(C)c(C(C)=O)c2C)c1C	-26%	/	2%	-11%	0%	-9%	/	/
40	Cc1oc(-c2ccccc2Cl)cc1-c1nn2c(-c3ccco3)nnc2s1	2%	-2.6%	-2%	/	/	/	4%	7%
41	O=C(Cn1cc(C(F)(F)F)cc(Cl)c1=O)Nc1cccc(Cl)c1	0%	-1.2%	26%	0%	-22%	-18%	5%	-3%
42	O=C(Nc1ccccc1)C1=C[C@H](c2ccc(Br)cc2)C[C@H](OCc2ccc(CO)cc2)O1	/	/	-4%	/	-3%	-4%	9%	/
43	Cc1cc(=O)oc2cc(OC(C)C(=O)Nc3nccs3)ccc12 (stereo unspecified)	-5%	-0.8%	2%	27%	-14%	-11%	3%	-9%
44	CC(C)Sc1nnc([C@H](Cc2ccccc2)NC(=O)OC(C)(C)C)o1	-22%[46.1 µM]	/	0%	-2%	3%	40%	1%	/
45	Cc1nc(Sc2nnnn2C)c2c3c(sc2n1)CCC3	?	-9.1%	3%	?	?	12%	-3%	4%
46	CC(Sc1ccccc1)C(=O)Nc1cccc(N(C)S(C)(=O)=O)c1 (stereo unspecified)	29%	-5.6%	/	-2%	/	4%	-2%	7%
47	COc1ccc(C(=O)NNC(=O)c2ccc3ccccc3c2)cc1	7%	/	/	-3%	-10%	10%	/	/
48	CCO[C@@H]1OC(C(=O)N2CCOCC2)=C[C@H](C)[C@H]1CCCO	/	/	2%	/	-16%	10%	-3%	/
49	Cc1ccc(NC(=O)C2CCN(S(=O)(=O)c3ccc4c(c3)CCCC(=O)N4)CC2)c(Br)c1	10%&10%[46.1 µM]	-1.3%	1%	?	-18%&-21%	-8%	18%	-5%
50	Cc1ccc2c(=O)cc(C(=O)Nc3c(C(=O)c4ccc(F)cc4)oc4ccccc34)oc2c1C	2%[46.1 µM]	-0.2%	/	13%[46.1 µM]	-16%	/	/	-11%

Next part
No.	SMILES	Marburg entry inh	Cruzain Triton	SARS PLpro yeast	LASV entry inh	2A StopGo	RE007 growth inh	NS1 function inh	Cruzain noTriton
51	COc1ccccc1C(=O)N(Cc1nc(-c2cccc(C)c2)no1)C(C)C	?	-4.6%	/	?	-25%	/	/	11%
52	O=C(Nc1cc(Cl)ccc1O)c1snnc1-c1ccccc1	?	-8.1%	-3%	?	20µM*	-11%	0%	-11%
53	Cc1nn(CC(=O)N2CCc3ccccc3C2)c(C)c1[N+](=O)[O-]	-7%[46.1 µM]	/	-2%	-10%[46.1 µM]	-14%	3%	0%	/
54	O=C(c1ccc(NS(=O)(=O)c2ccccc2)cc1)N1CCCCCC1	-15%	/	-6%	-10%	6%	2%	5%	/
55	O=C(NC(C(=O)c1ccccc1)N1CCOCC1)c1ccccc1 (stereo unspecified)	10%	-0.2%	-2%	6%	9%	-1%	15%	11%
56	O=C(CC1(O)C(=O)Nc2ccccc21)c1ccccc1O (stereo unspecified)	7%	-6.8%	0%	-5%	7%	-23%	-5%	3%
57	CCOc1ccc(NC(=O)N(C2CCCCCC2)C2CCN(C(C)=O)CC2)cc1	3%	-2.4%	0%	-9%	-1%	-19%	-5%	2%
58	CCOC(=O)c1cc(NC(=O)c2ccccc2)c(=O)oc1-c1ccccc1	25%	-8.0%	-7%	-18%	22%	9%	6%	6%
59	Cc1ccc(NC(=O)CSCc2cnn(-c3ccccc3)c2-n2cccc2)c(Cl)c1	-1%[46.1 µM]	-5.3%	/	10%[46.1 µM]	-12%	/	/	-13%
60	CCOC(=O)c1cnc(-n2nc(C)cc2C)nc1Nc1cccc(C(=O)O)c1	-6%	-7.7%	0%	0%	-1%	4%	3%	12%
61	CCCCC(=O)Nc1c(-c2cccc(OC)c2)c(=O)c2ccccc2n1C	/	/	-1%	/	-16%	3%	2%	/
